Compound activity from PubChem BioAssay.
HCMV UL50-53 inh = cytomegalovirus nuclear egress complex inhibition. inhibition, % (no concentration beside the values). AID 1918969. HTRF UL50-UL53 interaction, normalized percent inhibition. 190,000 compounds, 0.15% hits;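 active = both replicates at 50% or more, plus weaker picks with an unusually low signal ratio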;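 also: stock transfer was 100 nL into about 20 µL; 0% = negative control wells and 100% = wells with untagged competitor protein; inactives centre near -12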
GIV-Gai inh = blocks GIV peptide binding to rat Galpha-i3; Galpha-i3/FITC-GIV peptide fluorescence polarization, 90 min; active compounds read low; scaled: aluminum fluoride 0%, vehicle 100%; 210,000 compounds, 0.42% hits; percent of control (FP), % (no concentration beside the values); P08753; AID 1224905;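 active = replicate mean at 85% of control or lower, very high polarization wells dropped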;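 also: wells of about 15 µL received 100 nL stock; the first replicate is given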
Target sequence (P08753 whole entry, looked up): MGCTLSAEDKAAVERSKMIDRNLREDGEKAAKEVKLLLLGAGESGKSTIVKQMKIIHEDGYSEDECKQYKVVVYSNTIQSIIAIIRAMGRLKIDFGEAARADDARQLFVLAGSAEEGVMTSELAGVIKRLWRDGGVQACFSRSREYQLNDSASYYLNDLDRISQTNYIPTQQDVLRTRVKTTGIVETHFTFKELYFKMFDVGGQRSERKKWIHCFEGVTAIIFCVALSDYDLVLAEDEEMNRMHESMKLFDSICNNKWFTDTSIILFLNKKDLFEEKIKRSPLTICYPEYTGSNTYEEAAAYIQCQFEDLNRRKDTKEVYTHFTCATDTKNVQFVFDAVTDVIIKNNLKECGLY
Sa growth inh = blocks Staphylococcus aureus growth. AID 720641. relative growth, % (test concentration not listed). 170,000 compounds, 0.53% hits. S. aureus RN4220 growth, OD600, 20 h, 42 °C; active compounds read low;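 active = growth at 42 °C up to 50% and 20 or more points under that at 30 °C, or under 10% at both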;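 also: 300 nL library stock went into each well; scaled to the means of positive and negative controls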
Sa growth inh second temp = further read-out of Sa growth inh, marked with its call; relative growth, %; measured here: growth at 30 °C;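 optical density after 20 h as mean of two plates; 100% = untreated growth and lower means inhibition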
The depositor's hits bear a star; / = no result given. This is a random part of the collection. Share with any hit: about 0.79%.

SMILES	HCMV UL50-53 inh	GIV-Gai inh	Sa growth inh	Sa growth inh second temp
S=c1cc(Nc2ccc(Br)cc2)[nH]cn1	-21	142	89	78
C=CCNS(=O)(=O)c1cccc2nonc12	/	104	119	108
Cc1cc(OCC(=O)O)c(C(C)C)cc1Br	-4	104	115	79
CCN1C(=O)CS/C1=N\N1CCOCC1	-6	/	103	92
O=C(COC(=O)Cn1nnc(-c2ccccc2)n1)Nc1cc(F)ccc1F	-13	/	84	91
O=C(Nc1ccc(F)cc1C(F)(F)F)C1CCN(c2ncccn2)CC1	-35	102	83	83
O=C(O)c1ccccc1C(=O)Nc1ccc(/C=C/c2ccccc2)cc1	-4	/	95	90
CCn1nc(C)c(CNC(=O)NCc2ccccc2)c1C	-6	107	107	98
CCOc1cc(-c2nc3sc4c(c3c(=O)[nH]2)CCCC4)ccc1OCCOCCOc1ccc(C)c(C)c1	-2	108	/	/
Cc1ccc(-c2nnc(NC(=O)c3ccc4c(c3)OCCO4)o2)c(C)c1	/	99	64	46
CCCCN(Cc1ccco1)C(=O)c1cc2c(s1)-c1c(C)cccc1OC2	-42	106	111	85
Cc1nc(-n2cccc2)sc1C(=O)NCCCc1ccccc1	-13	101	87	91
CCc1cccc(NC(=O)Cn2c(C(=O)OC)cc3sc(Cl)cc32)c1	-32	105	120	94
CC(Oc1ccc(Br)cc1)C(=O)Nc1ncn[nH]1 (stereo unspecified)	8	104	107	95
Cc1cc(C)n2nc(COc3ccccc3)c(-c3ccccc3)c2n1	-16	103	/	/
CSc1nnnn1-c1ccccc1	-1	/	87	88
COc1cc(/C=N\n2cn[nH]c2=S)cc(OC)c1OC	-83	103	94	79
CCCNC(=O)c1c(C)nn(-c2cccc(C)c2)c1-n1cccc1	/	97	87	85
Cc1ccc(N(C)C(=O)C2CCN(S(=O)(=O)c3cn(C)cn3)CC2)cc1	/	99	96	96
O=c1c2cc(-c3ccc4c(c3)OCO4)nn2ccn1Cc1nc(-c2ccc(F)c(Cl)c2)no1	-14	112	/	/

Shown as a markdown table: entries from further up
| canonical_smiles | HCMV UL50-53 inh | GIV-Gai inh | Sa growth inh | Sa growth inh second temp |
| --- | --- | --- | --- | --- |
| C=CCNS(=O)(=O)c1cccc2nonc12 | / | 104 | 119 | 108 |
| Cc1cc(OCC(=O)O)c(C(C)C)cc1Br | -4 | 104 | 115 | 79 |
| CCN1C(=O)CS/C1=N\N1CCOCC1 | -6 | / | 103 | 92 |
| O=C(COC(=O)Cn1nnc(-c2ccccc2)n1)Nc1cc(F)ccc1F | -13 | / | 84 | 91 |
| O=C(Nc1ccc(F)cc1C(F)(F)F)C1CCN(c2ncccn2)CC1 | -35 | 102 | 83 | 83 |

An excerpt from further up, as a working copy:
SMILES	HCMV UL50-53 inh	GIV-Gai inh	Sa growth inh	Sa growth inh second temp
S=c1cc(Nc2ccc(Br)cc2)[nH]cn1	-21	142	89	78
C=CCNS(=O)(=O)c1cccc2nonc12	/	104	119	108

The listing picks up, repeating the 2 entries before the break.
SMILES	HCMV UL50-53 inh	GIV-Gai inh	Sa growth inh	Sa growth inh second temp
Cc1ccc(N(C)C(=O)C2CCN(S(=O)(=O)c3cn(C)cn3)CC2)cc1	/	99	96	96
O=c1c2cc(-c3ccc4c(c3)OCO4)nn2ccn1Cc1nc(-c2ccc(F)c(Cl)c2)no1	-14	112	/	/
Cc1cccc(N(C)C(=O)Cn2ncc3c2-c2ccccc2OC3)c1	/	102	99	73
CCOc1ccc(NC(=O)c2cccc(N3CCCS3(=O)=O)c2)cc1	/	101	86	92
COc1ccc(NC(=O)c2c(Cl)nc3ccccn23)cc1	7	/	82	96
COc1ccc(OCc2nc(CCN(C)C(=O)C3CCCC3)no2)cc1	-8	102	/	/
Cc1ccc(NC(=O)NCCCn2c(-c3ccncc3)nc3cccnc32)cc1	-5	110	/	/
Cc1ccc2c(c1)c(C)cc(=O)n2CCC(=O)O	-20	107	134	90
c1ccc(-c2nnc(CN3CCc4sccc4C3c3cccs3)o2)cc1 (stereo unspecified)	-9	/	95	93
Cc1ccc(N2CCN(c3nc4c(S(=O)(=O)c5ccc(C)c(C)c5)nnn4c4ccccc34)CC2)c(C)c1	/	98	103	102
Cc1cc(C(=O)NN2CC(O)=C(c3nc4ccccc4n3C)C2=N)c(C)o1	-4	/	88	91
CC(C)Oc1cccc(C(=O)O)c1	-9	98	91	86
O=C(Nc1nc2ccccc2n1Cc1ccc(Cl)cc1)C1CCCCC1	/	97	107	78
CCSC1=N/C(=C\c2ccco2)C(=O)N1c1ccc(OC)c(Cl)c1	-1	/	92	88
Cc1nn(C)c2sc(C(=O)N(Cc3ccccn3)Cc3ccccn3)cc12	-26	98	99	85
COc1ccc2nc(NC(C)=O)sc2c1	18	/	134	106
COc1ccc(Cn2c(CO)cnc2SCC(=O)N(C(C)C)C(C)C)cc1	-27	105	110	83
O=C(OCc1ccccc1Cl)c1cc(=O)[nH]c2ccccc12	-14	99	120	98
Cc1ccc(NC(=O)Cn2ncc3c4ccccc4n(Cc4ccccc4)c3c2=O)cc1Cl	-32	102	102	89
COCCCNC(=O)C1CCCN(c2ccnc(-c3ccc(F)cc3)n2)C1 (stereo unspecified)	-13	109	/	/
Cc1ccc(C)c(N=Cc2ccccc2O)c1	-6	106	84	107
CCCn1c(=O)[nH]c2c(sc3ncccc32)c1=O	-84	108	/	/
O=C(O)COc1ccccc1/C=C1/SC(=S)N(NC(=O)c2ccco2)C1=O	-90	97	83	62
Cc1ccc(NC(=O)Cn2c(=O)n(Cc3ccc4c(c3)OCO4)c(=O)c3ccccc32)c(C)c1	-10	102	101	90
CC(C)C1NC(=O)N(C2CCCCC2)C1=O (stereo unspecified)	-20	104	92	89
O=C(Nc1cccc(Oc2ccc3c(c2)C(=O)NC3=O)c1)c1ccc(Br)o1	4	92	117	98
CCN(CC)c1ncc(C(=O)O)cc1NS(=O)(=O)c1c(C)cc(C)cc1C	-21	81*	/	/
CC(=O)Nc1cccc(C(=O)OC(C)C(=O)NC2(C#N)CCCCC2)c1 (stereo unspecified)	2	/	102	88
COc1cc(Cl)c(NC(=O)CCc2nc3cccnc3n2-c2ccccc2)c(OC)c1	-40	107	113	88
Cc1ccccc1-n1c(=O)cc(N2CCc3ccccc3C2)[nH]c1=O	2	101	106	95
c1ccc2oc(-c3ccc(NCc4ccc5c(c4)OCO5)cc3)nc2c1	5	107	90	85
CCOC(=O)c1nn(-c2ccc(C)cc2)c(=O)cc1OCC(=O)N1CCN(c2ccccc2)CC1	-12	106	102	91
COc1ccc(N2CCN(C(=O)CCc3c(C)nc4nc[nH]n4c3=O)CC2)cc1	-20	101	86	91
CC(=O)NCc1ccc(C(=O)COC(=O)c2cc3c(s2)CCCCC3)o1	-11	/	113	85
CCOC(=O)c1[nH]c(C)c(C(=O)NCc2cccc(OC)c2)c1C	-8	97	100	85
COc1cccc(OC)c1C(=O)Nc1nnc(C(F)(F)F)s1	/	106	105	107
Clc1ccc(CCNc2ncnc3c2oc2ccccc23)cc1	-20	/	82	94
O=C1c2oc3ccccc3c(=O)c2C(c2cccc(Cl)c2)N1c1ccccn1 (stereo unspecified)	-32	97	86	94
COc1ccc(N(C(=O)c2cc(C)cc(C)c2)C2C=CS(=O)(=O)C2)c(OC)c1 (stereo unspecified)	/	99	108	92
CN(C)c1ncnc2nc[nH]c12	/	99	100	97
Cc1c(NS(=O)(=O)c2cccc3c2C(=O)c2ccccc2C3=O)c(=O)n(-c2ccccc2)n1C	-147	103	/	/
CCOc1ccc(CCNc2ncnc3onc(C)c23)cc1OCC	/	102	107	93
Cc1nn(CC(=O)c2cc(C)n(CC(F)(F)F)c2C)c(=O)c(C#N)c1C	-60	/	103	95
Cc1ccc(-c2nc(NCc3cccs3)c3ccccc3n2)cc1	24	113	/	/
C#Cc1cccc(NC(C)=O)c1	-18	104	99	82
COc1ccc(NC(=O)C2CCCN(S(=O)(=O)c3c(C)[nH]c(=O)[nH]c3=O)C2)cc1Cl (stereo unspecified)	-6	104	91	100
CCCCn1c(O)c(C2=NN(C(C)=O)C(c3ccc(Br)cc3)C2)c(=O)[nH]c1=S (stereo unspecified)	-18	102	/	/
Cc1c(Cl)cccc1NC(=O)CSc1nc(=O)n(Cc2ccco2)c2c1CCC2	/	101	96	82
c1ccc(-c2nnc3ccc(SCc4cccnc4)nn23)cc1	-6	100	106	81
O=C(N/N=C/c1c(Sc2nnnn2-c2ccccc2)nc2ccccn2c1=O)c1ccccc1	-86	/	109	88
CSc1ccccc1Nc1ncnc(N)n1	-6	99	119	75
CCS(=O)(=O)CCSc1nc2ccccc2s1	5	99	93	98
CCOc1ccccc1CNc1ncn[nH]1	3	101	77	90
c1ccc(Cn2nnnc2C(c2cccs2)N(Cc2cccnc2)Cc2ccco2)cc1 (stereo unspecified)	0	100	111	58
O=C(CSc1ccc(-c2ccncc2)nn1)NC1CCCC1	/	103	96	80
O=C(Cn1cncn1)N/N=C/c1ccccc1OC(=O)/C=C1\SC(=O)NC1=O	-9	/	79	66
CCOCCCNCc1ccc(-c2ccc(Br)cc2)o1	-44	109	/	/
O=C(NCc1ccc(Cl)cc1)c1cc2ccccc2o1	-21	102	105	101
CC(C)(C)NC(=O)CN1CCN(c2cc(C(=O)O)c3cc(NC(=O)C(C)(C)C)ccc3n2)CC1	-2	106	/	/
O=C(COc1ccccc1)N1CCCC2CCCCC21 (stereo unspecified)	0	/	126	92
Cc1cc(C)c(S(=O)(=O)Nc2ccc3c(c2)OCO3)c(C)c1	3	104	78	79
CC(C)N(C(=S)Nc1ccccc1Cl)C(C)c1ccccn1 (stereo unspecified)	/	107	114	96

6 entries out of the list, arranged by SMILES length, low to high.
SMILES	HCMV UL50-53 inh	GIV-Gai inh	Sa growth inh	Sa growth inh second temp
CSc1ccccc1Nc1ncnc(N)n1	-6	99	119	75
CCS(=O)(=O)CCSc1nc2ccccc2s1	5	99	93	98
Cc1ccc(-c2nc(NCc3cccs3)c3ccccc3n2)cc1	24	113	/	/
Cc1cc(C)c(S(=O)(=O)Nc2ccc3c(c2)OCO3)c(C)c1	3	104	78	79
c1ccc(Cn2nnnc2C(c2cccs2)N(Cc2cccnc2)Cc2ccco2)cc1 (stereo unspecified)	0	100	111	58
O=C(Cn1cncn1)N/N=C/c1ccccc1OC(=O)/C=C1\SC(=O)NC1=O	-9	/	79	66

(further entries)
SMILES	HCMV UL50-53 inh	GIV-Gai inh	Sa growth inh	Sa growth inh second temp
CCOc1ccc(NC(=S)NC(c2ccccc2)c2ccccc2)cc1	-26	106	101	87
COc1ccc(NC(=O)Cn2c(=O)n(Cc3ccco3)c(=O)c3sc4ccccc4c32)cc1OC	-10	104	109	84
O=C(Cn1ccn2nc(-c3ccc(Cl)cc3)cc2c1=O)NC1CCCC1	-18	101	/	/
Cc1cc2c(cc3n2CC(C)(C(=O)NC2CCCCC2)N(CCCN2CCOCC2)C3=O)o1 (stereo unspecified)	-15	101	/	/
CNC(=O)c1c(O)c2cc(OC)c(OC)cc2[nH]c1=O	1	105	112	99
Cc1ccc(S(=O)(=O)Nc2ccc(N3CCN(c4cccc(Cl)c4)CC3)c(C(=O)O)c2)cc1	-5	100	/	/
O=C(Cn1c(-c2ccccc2Cl)nc2ccccc2c1=O)Nc1cccc(C(F)(F)F)c1	8	102	/	/
Cc1c(CC(=O)NCc2ccc(F)cc2)c(=O)oc2cc(O)c(Cl)cc12	-35	94	100	85
Cc1ccc(C)c(NC(=O)c2nnn(CC(=O)Nc3cccc(C)c3C)c2N)c1	/	102	68	88
CCc1ccc(CNC(=O)c2ccc3nc(SCc4ccc(F)cc4)n(C)c3c2)cc1	7	110	100	91
Cc1ccccc1OCC(=O)Nc1ccc(-c2nc3ncccc3o2)cc1	-63	106	95	89
CCOC(=O)C1CCN(C(=O)Cc2ccccc2OC)CC1	-8	101	98	82
O=C(Nc1ccc(F)cc1F)c1ccc(CN2CC(=O)N3CCCCC3C2=O)cc1 (stereo unspecified)	/	103	109	93
CC1(C(=O)NC2CCCCC2)Cn2c(cc3ccsc32)C(=O)N1c1ccc2c(c1)OCCO2 (stereo unspecified)	-15	108	/	/
COc1ccc(-c2cc(C(F)(F)F)nc(SCC(=O)Nc3cn(C)nc3C)n2)cc1OC	/	105	110	83
CC(=O)Nc1ccc(C(=O)CSc2nc3ccccc3c(=O)n2CC2CCCO2)cc1 (stereo unspecified)	-32	/	72	85
O=C(NN1CC(=O)N(C2CCCC2)C1=O)C(c1ccccc1)c1ccccc1	3	95	108	73
COc1ccc(NC(=O)c2sc3nc4c(cc3c2N)CN(Cc2ccccc2)CC4)cc1	-16	99	100	90
CCOc1ccc(C2CC(=O)Nc3c2c(C)nn3-c2nc(C)cc(C)n2)cc1 (stereo unspecified)	22	106	/	/
